SmPrx2 inh = Schistosoma Mansoni Peroxiredoxins (Prx2) | AID 448, 2006 | 65,000 compounds, 0.07% hits | S. mansoni Prx2 activity coupled to TGR/GSH (TGR is thioredoxin glutathione reductase), NADPH fluorescence loss, qHTS; some inactives read as strong as hits | Schistosoma mansoni peroxiredoxin 2 (Prx2) | Potency, µM; active means full or partial inhibition curve with a strong effect at the top dose; inconclusive means weaker partial or single-point curve; inactive means no accepted curve; also: series up to 57 µM; many of its hits are not listed in these tables
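Enzyme mix: 100 uM NADPH, 25 nM TGR, 700 uM GSH, 50 nM Prx2 in 100 mM phosphate pH 7.4, 10 mM EDTA, 0.01% Tween-20. 15 min RT with compound; NADPH/GSH added, H2O2 starts reaction; NADPH fluorescence read 8 min.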
Anthrax LT inh = qHTS Assay for Anthrax Lethal Toxin Internalization. Potency, µM (titrated, usually from 40 µM), for the others: top-dose activity change, negative = inhibition, hits mostly inhibitors. Cells, anthrax lethal toxin internalization, FRET ratio (460/530). 70,000 compounds, 0.67% hits; active = well fitted falling ratio curve with the 530 nm signal flat; inconclusive = other ratio curves, or a change in one channel alone; inactive = flat curves in the ratio and both channels; the % refers to the ratio; also: % is scaled to controls: 0 for no effect and ±100 for the full control effect; nearly all actives have a fitted effect of over 50% in size; tested in ME-180 cells; beta-lactamase reporter
An asterisk follows results filed as active; ? = inconclusive; nt = no result given; [ ] = another dose, or the depositor's remark. Potency is read from the fitted curve at half-maximal effect. Not all compounds are listed; the hit share may differ from the screen's.

#	structure	SmPrx2 inh	Anthrax LT inh
1	CC(Cc1ccccc1)C(=O)N1CCN(C)CC1 (configuration not stated)	nt	-7%
2	CN(C)C(=O)c1ccc(-c2ccc3ncnc(N4CCOCC4)c3c2)cc1	>57	-20%
3	CC(=O)CCC(=O)NCCc1ccccc1F	nt	-5%
4	Cc1ccc(NC(=O)c2cccc(Cl)c2)nc1	>57	-4%
5	O=C(C1CCCN(S(=O)(=O)c2cccnc2)C1)N1CCn2c1nc1ccccc12 (configuration not stated)	>57	-30%
6	Cc1ccc(C)c(NS(=O)(=O)c2c(C)nn(C)c2C)c1	>57	-1%
7	CCOC(=O)c1ccc(COC(=O)c2ccc(-c3nnc(-c4ccccc4)o3)cc2)o1	>57	-13%
8	COc1ccc(-c2nc3cnc(Nc4ccccc4)nc3n(CCC#N)c2=O)cc1	>57	?
9	O=C(Nc1cnn(Cc2ccc(F)cc2)c1)c1cc2nc(-c3ccco3)cc(C(F)(F)F)n2n1	>57	-10%
10	C=CCN1C[C@H](C)N([C@H](c2ccc(C(=O)N(CC)CC)cc2)c2cccc(OC)c2)C[C@H]1C	>57	?
11	O=C(O)c1cc(=O)[nH]c(SCc2ccccc2)n1	>57	-4%[8 µM]
12	CCCP(=O)(CC(=O)O)c1ccccc1 (configuration not stated)	nt	-8%
13	C=CCn1c(COc2cccc3cccnc23)nnc1SCC(=O)OC	>57	13%
14	CN(C)Cc1ccccc1-c1cc(N(C)Cc2ccco2)ncn1	>57	?
15	O=C(Cn1c(CC(=O)N2CCOCC2)nc2ccccc21)Nc1ccc2c(c1)OC(F)(F)O2	>57	1%
16	N#Cc1c(NCc2ccccc2)ccnc1NCc1cccnc1	>57	-1%
17	CC1CCCN(C(=O)CNC(=O)Cn2ccc3ccccc3c2=O)C1 (configuration not stated)	>57	-1%
18	CCOC(=O)CSc1n[nH]c(-c2cccnc2)n1	>57	-1%
19	CCCC/C=C/C(NC(=O)c1ccco1)c1ccccc1 (configuration not stated)	>57	-25%
20	O=C(C1CC1)N1CCc2cc(Br)cc(S(=O)(=O)NCc3ccco3)c21	>57	-6%
21	O=C(O)CCNS(=O)(=O)c1ccccc1	>57	2%
22	COc1cccc(N(CC(=O)N2CCN(C)CC2)S(=O)(=O)c2ccccc2)c1	>57	3%
23	Cc1ccc(S(=O)(=O)N2CCN(C(=O)CN3CCOCC3)C2)cc1	>57	6%
24	Cc1ccc(-c2nnc(N3CCN(C(=O)CN4CCOCC4)CC3)c3ccccc23)cc1	>57	-12%
25	Cc1ccccc1S(=O)(=O)Cc1ccc(C(=O)N2CCN(c3ncccn3)CC2)o1	>57	7%
26	COc1ccccc1CNC(=O)N[C@@H](Cc1ccccc1)C(=O)O	>57	nt
27	FC(F)(F)c1nnc2sc(-c3ccco3)nn12	>57	0%
28	OCCNCCCCOc1ccccc1F	nt	-17%
29	O=C(CCn1c(=O)sc2ccccc21)Nc1ccon1	>57	4%
30	O=C(c1cc2nc(-c3ccco3)cc(C(F)(F)F)n2n1)N1CCN(c2ccccn2)CC1	>57	?
31	CC1=C(C(=O)Nc2ccccc2)C(c2cccs2)C(C#N)=C(SCC#N)N1 (configuration not stated)	>57	8%
32	O=C1C(=O)c2ccccc2C(O)=C1C(C1=C(O)c2ccccc2C(=O)C1=O)c1ccc(Cl)cc1	>57	?
33	O=C(NCC(=O)N1CCCC1)c1cccs1	>57	-4%
34	O=C(CSc1nnc(Cc2ccccc2)n1-c1ccc(F)cc1)N1CCOCC1	>57	2%
35	Fc1ccc(Nc2nc(Oc3ccc4c(c3)OCO4)nc(N3CCOCC3)n2)c(F)c1	nt	-1%
36	O=C(CCNC(=O)Cn1ccc2ccccc2c1=O)NCCCN1CCN(c2ccc(F)cc2)CC1	>57	-4%
37	COc1ccc(N(CC(=O)O)S(C)(=O)=O)cc1OC	>57	5%
38	O=C(Nc1ccc(Cl)cc1)c1cc2nc(-c3ccco3)cc(C(F)(F)F)n2n1	>57	?
39	Cc1nnc(SCC(=O)Nc2nsc(-c3ccccc3)n2)s1	>57	nt
40	O=c1[nH]cnc2c1N1CCC2CC1	>57	-3%
41	Cc1nn(C)c(C)c1NC(=O)c1ccnn1C	>57	3%
42	CCCCn1nc(C(=O)O)ccc1=O	>57	10%
43	CCc1nnc2sc(-c3ccc(NC(=O)c4ccc5c(c4)OCCO5)cc3)nn12	>57	0%
44	CCC/C=C(\CCC)C(NS(=O)(=O)c1ccc(C(F)(F)F)cc1)c1ccc(C(=O)OC)cc1 (configuration not stated)	>57	-6%
45	CCCS(=O)(=O)N1CCN(C(=O)c2cccs2)CC1	>57	8%
46	O=C(Cn1nnc(-c2cccc(C(F)(F)F)c2)n1)N1CCOCC1	>57	-15%
47	COC(=O)[C@@]1(Cc2ccc(F)cc2)[C@H]2c3cc(C(=O)N4CCCC4)n(CCO)c3C[C@H]2CN1C(=O)c1ccccc1	>57	?
48	O=C(CCCc1nc(-c2ccccc2Cl)no1)NC1CCCCC1	>57	-14%
49	COc1ccc(S(=O)(=O)N(CC(=O)O)c2ccccc2)cc1	>57	?
50	Cc1ccc(C)c(NC(=O)Cn2nc(C)c3ccccc3c2=O)c1	>57	-7%
51	Cc1nc(SCC(=O)c2ccc(F)cc2)n[nH]1	nt	-1%
52	CCCOc1cccc(C2/C(=C(/O)c3ccc(OC)cc3)C(=O)C(=O)N2CCN(C)C)c1 (configuration not stated)	>57	?
53	O=C(O)CNC(=O)CC12CC3CC(CC(C3)C1)C2	>57	-18%
54	Cc1cccc(C)c1OCC(=O)NCc1nnc(SCC(=O)NC2CCCCC2)n1C	>57	11%
55	CC(=O)c1c(OC(=O)c2ccco2)c2ccccc2n1C	>57	-9%
56	CCOc1cc(-c2noc(CCCC(N)=O)n2)cc(Br)c1OC	>57	-14%
57	O=C(O)C1C2C=CC3(CN(Cc4ccccn4)C(=O)C13)O2 (configuration not stated)	>57	?
58	COc1ccc(OCCC(=O)NCc2ccccc2)cc1	>57	8%
59	O=C1CC(c2ccccc2)CN1S(=O)(=O)c1ccccc1 (configuration not stated)	>57	1%
60	COCCNC(=O)c1c(N)n(CCCn2ccnc2)c2nc3ccccc3nc12	>57	?

More compounds follow.
#	structure	SmPrx2 inh	Anthrax LT inh
61	O=C(Cn1ncc2c(=O)oc3ccccc3c21)NCCC1=CCCCC1	>57	-6%
62	CC(=O)[C@@]1(O)CC[C@@H]2[C@@H]3CCC4=CC(=O)CC[C@@]4(C)[C@H]3CC[C@]21C	>57	-3%
63	CCOC(=O)Cc1csc(SCC(=O)/C(C#N)=C(\C)N)n1	>57	1%
64	Cc1nc2cncnc2n(C2CC2)c1=O	>57	-6%
65	CC(=O)N1CCC2(CC1)CN(Cc1ccccc1)C2	>57	-3%
66	CCCN1CCC2(CC1)NC(CO)(CO)CO2	>57	?
67	CCOC(=O)C1CCCN(Cc2nc(N)nc(Nc3ccccc3OC)n2)C1 (configuration not stated)	>57	2%
68	CCOc1ccc(-n2c(SC(C)C(=O)OC)nc3c(c2=O)SCC3)cc1 (configuration not stated)	>57	-9%
69	CC1CCc2sc3nc(N4CCN(CCO)CC4)n4ncnc4c3c2C1 (configuration not stated)	>57	-11%
70	O=C1C=C(N(CCO)CCO)C2(CCCCC2)O1	>57	0%
71	COc1cccc(Nc2ncc3nc(C)c(=O)n(C[C@H]4CCCO4)c3n2)c1	>57	-17%
72	Cc1cc(C(=O)Nc2nc3ccc(S(C)(=O)=O)cc3s2)c(C)o1	>57	-6%
73	S=C1NC=NC2N=CNC12 (configuration not stated)	nt	-11%
74	Cc1ccc(S(=O)(=O)n2nc(-c3ccc(Cl)cc3)nc2NCc2ccco2)cc1	>57	-26%
75	O=C1CC(c2ccc(S(=O)(=O)N3CCN(c4ccccc4)CC3)cc2)CN1 (configuration not stated)	>57	16%
76	COc1ccc(CCN(C)CCN2C(=O)c3ccccc3C2=O)cc1OC	>57	-10%
77	O=C(COC(=O)CSCC(=O)N1CCCCC1)Nc1ccc(Cl)cc1	>57	20%
78	Nc1nc2n[nH]nc2c(=O)[nH]1	>57	4%[3.58 µM]
79	CC(c1ccccc1)C1CC(=O)N(CC(=O)O)C1=O (configuration not stated)	>57	8%
80	CC(=O)c1ccc(C2C=CC(O)C(CO)O2)cc1 (configuration not stated)	nt	-18%[8 µM]
81	COc1cc2nc(-c3ccc(Br)o3)oc(=O)c2cc1OC	>57	nt
82	CC1(C)CC(NC(=O)CCc2ccccc2)CC(C)(C)N1	>57	-10%
83	COc1ccc(C)cc1NC(=O)CSc1nnnn1Cc1ccccc1	>57	?
84	N[C@H](Cc1cccc(-c2ccccc2CP(=O)(O)O)c1)C(=O)O	>57	4%
85	Cc1ccc(SCc2cc(=O)[nH]c(N3CCOCC3)n2)cc1	>57	nt
86	c1ccc(CN2CCN(CCN3CCn4c3nc3ccccc34)CC2)cc1	>57	-16%
87	Cn1c(=O)n(CC(=O)O)c(=O)c2c1nc1n2CCS1	>57	1%
88	Cc1ccc2nc(SCCC#N)nc(C)c2c1	>57	-2%
89	CCCCCn1c(SCCCC)nc2c1c(=O)[nH]c(=O)n2C	>57	-2%
90	COc1c(C)cccc1C(=O)Nc1ccc(CN2CCOCC2)cc1	>57	2%
91	C=CCn1c(SCn2nnc3ccccc3c2=O)nnc1-c1ccc(Br)cc1	>57	-22%
92	Cn1c(=O)oc2cc(S(=O)(=O)NCCC(=O)Nc3ccc4c(c3)OCCO4)ccc21	nt	0%
93	COc1cc2c(O)c3c(c(-c4ccc5c(c4)OCO5)c2cc1OC)C(=O)OC3	>57	0.02µM*
94	CN(C)S(=O)(=O)Nc1ccc(Br)cc1F	>57	5%
95	COc1ccccc1CNc1cc(-c2cccc(NS(C)(=O)=O)c2)ncn1	>57	2%
96	O=C(CCS(=O)(=O)c1cccc2nsnc12)N1CCN(C(=O)c2ccco2)CC1	>57	2%
97	Cc1ccccc1C(=O)N1CCC(C(=O)Nc2ccc(S(=O)(=O)N3CCCC3)cc2)CC1	>57	7%
98	Cc1cc2cc3c(cc2nc1SCC(=O)N1CCN(C(=O)c2ccco2)CC1)OCO3	>57	8%
99	CC1(C)CC(=O)C(/C=N/n2cnc3ccccc3c2=O)=C(O)C1	>57	-12%
100	COc1ccc(S(=O)(=O)N(C)C2CCS(=O)(=O)C2)cc1OC (configuration not stated)	>57	12%
101	Cc1cccc(OCC(O)Cn2c(NCc3cccnc3)nc3c2c(=O)[nH]c(=O)n3C)c1 (configuration not stated)	>57	3%
102	COCC(C)n1c(C)cc(C(=O)COC(=O)c2ccc3ncsc3c2)c1C (configuration not stated)	>57	-16%
103	COc1cccc(C2C=C(c3cccs3)Nc3ncnn32)c1OC (configuration not stated)	>57	?
104	CCCC(=O)c1ccc(N2CCN(C(=O)c3ccccc3)CC2)c(F)c1	nt	?
105	CCOC(=O)c1c(C)oc2ccc(O)c(CN(C)C)c12	>57	-3%
106	CC1CCCCN1C(=O)CSc1nnc(-c2ccco2)n1CC1CCCO1 (configuration not stated)	>57	-18%
107	CS(=O)(=O)N1CCN(c2ccccc2NC(=O)c2ccc(Cl)cc2)CC1	>57	-9%
108	Cc1cc(C)nc(SCc2nnc(SCC(=O)Nc3ccccc3C)n2Cc2ccco2)n1	>57	3%

Single records, from the list above. Order of values: SmPrx2 inh | Anthrax LT inh
COc1cc2c(O)c3c(c(-c4ccc5c(c4)OCO5)c2cc1OC)C(=O)OC3 is listed as >57 | 0.02µM*
CCCOc1cccc(C2/C(=C(/O)c3ccc(OC)cc3)C(=O)C(=O)N2CCN(C)C)c1 (configuration not stated) is listed as >57 | ?
Cc1ccc(SCc2cc(=O)[nH]c(N3CCOCC3)n2)cc1 is listed as >57 | nt
C=CCn1c(COc2cccc3cccnc23)nnc1SCC(=O)OC is listed as >57 | 13%

(continued)
#	structure	SmPrx2 inh	Anthrax LT inh
109	COc1cccc(-c2nc(CS(=O)(=O)CC(=O)N3CCN(c4ccccn4)CC3)c(C)o2)c1	>57	-13%
110	Cc1noc(/C=C/N(C)C)c1S(=O)(=O)N1CCc2ccccc21	>57	?
111	C=CCn1c(SCC(=O)NC2CCCC2)nc2scc(-c3ccco3)c2c1=O	>57	-7%
112	COC(=O)c1ccccc1NC(=O)Cn1c(SC)c(F)cnc1=O	>57	1%
113	Cc1c(Br)cc(C(=O)OC2CCN(C)CC2)c(C)c1C	>57	-6%
114	COC(=O)CN1C(=O)C(O)(CC(=O)c2cccc(Br)c2)c2ccccc21 (configuration not stated)	>57	-11%
115	CCN1CCN(Cc2cc(Br)cc(OC)c2O)CC1	>57	14%
116	c1cncc(CNc2ncnc3ccc(-c4ccoc4)cc23)c1	>57	-8%
117	COc1ccccc1N(C(=O)c1snc(C(N)=O)c1N)C(C(=O)NCCC(C)C)c1ccco1 (configuration not stated)	>57	-8%
118	COC(=O)c1cc(NC(=O)c2ccc(Cn3cc(Cl)cn3)o2)cc(C(=O)OC)c1	>57	6%
119	O=C1CC(c2ccc3c(c2)OCO3)c2cc3c(cc2N1)OCO3 (configuration not stated)	>57	26%
120	CC1CCCN(C(=O)Nc2cccc(NC(=O)N3CCCC(C)C3C)c2)C1C (configuration not stated)	>57	-7%
121	COc1ccc(S(=O)(=O)N2CCCC2C(=O)Nc2ccc(O)cc2)cc1 (configuration not stated)	>57	1%
122	CCOc1ccc(C(=O)NC2CCN(S(C)(=O)=O)CC2)cc1	>57	1%

Bioassay records (PubChem)
